RGS16-Gao: regulators of human RGS16-Galphao interaction. bead-based flow cytometry RGS16-Galphao binding, fluorescence; actives lie on both sides. binding response (% of control), % at 10 µM. hit rate 0.38% among 220,000. O15492+P09471;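 active = below 25% or above 175%, edge rows of some plates excepted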;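 also: Galphao activated by GDP with aluminum fluoride before binding; 100% = wells without compound and 0% = beads without RGS; some results beyond the cut were filed as inactive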
GALR2 ag: activates the human galanin receptor 2 | GALR2-expressing cells, agonist activation read-out | activation, %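 (tested at 5 µM)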 | hit rate 0.48% among 140,000 | AID 803;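 active = above mean plus 3 SD of all compounds, about 5% in these data, not always enough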;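 also: 0% = vehicle buffer wells and 100% = reference agonist at full effect; tested in CHO reporter cells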
INS promoter inh: TRM-6 insulin promoter activity inhibition. TRM-6 cells (human fetal islet line), insulin promoter-eGFP reporter, imaging; reporter expression induced with tamoxifen. inhibition, % at 2 µM. hit rate 0.9% among 130,000;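 active = inhibition above the mean plus 3 SD, with well images judged a real hit on visual review, cut at about 60% in these data, passing the limit was not always enough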
HSV augment: increases HSV replication in cells | HSV replication augmentation in cells, fold increase | maximum fold increase | hit rate 0.005% among 220,000 | AID 1956;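 active = peak rise of 1.5-fold or more in the series; tested in PC3 cells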;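 also: first round at 10 µM; read as green reporter fluorescence; hits show the peak of a series up to 25 µM; 1 = signal of infected wells without compound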
PKD1 kinase inh: PKD1 (human) kinase inhibition. Q15139. PKD1 kinase fluorescence polarization assay. inhibition, %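 (about 10 µM by stock and volumes)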. hit rate 0.056% among 200,000;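 active = inhibition of 50% or more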;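 also: controls were vehicle for no effect and a reference inhibitor for full effect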
Target sequence (Q15139 whole entry, looked up): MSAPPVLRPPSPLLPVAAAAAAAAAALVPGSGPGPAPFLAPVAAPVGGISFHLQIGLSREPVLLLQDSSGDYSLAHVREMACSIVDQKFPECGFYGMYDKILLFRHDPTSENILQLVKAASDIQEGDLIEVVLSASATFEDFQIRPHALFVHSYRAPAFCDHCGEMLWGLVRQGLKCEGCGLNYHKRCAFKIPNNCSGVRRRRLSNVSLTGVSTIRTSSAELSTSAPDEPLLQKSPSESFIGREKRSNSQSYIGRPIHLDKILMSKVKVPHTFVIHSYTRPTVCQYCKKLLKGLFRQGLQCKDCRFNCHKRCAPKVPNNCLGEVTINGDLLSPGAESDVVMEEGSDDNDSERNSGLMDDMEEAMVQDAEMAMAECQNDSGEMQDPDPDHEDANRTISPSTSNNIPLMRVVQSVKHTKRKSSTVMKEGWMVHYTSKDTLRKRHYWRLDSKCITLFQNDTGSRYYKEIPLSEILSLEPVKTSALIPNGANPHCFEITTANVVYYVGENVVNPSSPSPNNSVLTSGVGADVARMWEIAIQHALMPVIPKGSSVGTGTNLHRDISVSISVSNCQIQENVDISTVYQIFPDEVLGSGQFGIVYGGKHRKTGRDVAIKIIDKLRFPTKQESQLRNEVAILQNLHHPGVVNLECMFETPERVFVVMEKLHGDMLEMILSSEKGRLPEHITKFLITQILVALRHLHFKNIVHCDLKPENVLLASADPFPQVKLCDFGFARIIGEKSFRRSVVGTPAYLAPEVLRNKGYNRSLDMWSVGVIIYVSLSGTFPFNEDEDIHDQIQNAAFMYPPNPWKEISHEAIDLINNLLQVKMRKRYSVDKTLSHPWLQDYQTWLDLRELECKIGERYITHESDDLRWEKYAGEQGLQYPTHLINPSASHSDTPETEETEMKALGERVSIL
INS promoter inh cell count: second read-out of INS promoter inh, no call of its own (marks repeat the call); normalized cell count, %; measured here: cell count, toxicity; reference of the scale not given here;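 cells exposed to compound for 48 h; stained nuclei by imaging scaled within each plate; lower means fewer cells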
HSV augment primary fold: further read-out of HSV augment, marked with its call; fold increase; compound at 10 µM; measured here: primary screen fold increase 10 uM; tested in PC3 cells;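 GFP signal in the first replicate; 1 = infected wells without compound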
* marks the source's active call; other numbers are inactive results.

CC(C)CCn1c(SCCc2ccccc2)nc2c1c(=O)[nH]c(=O)n2C was read as RGS16-Gao 107, GALR2 ag 1.0, INS promoter inh 57, HSV augment inactive, PKD1 kinase inh 2, INS promoter inh cell count 97 and HSV augment primary fold 0.9.
Screening O=C(Oc1coc(CSc2nnc(NC(=O)c3cccs3)s2)cc1=O)c1ccccc1 returned RGS16-Gao 97, GALR2 ag -0.5, HSV augment inactive, PKD1 kinase inh 2 and HSV augment primary fold 1.3.
CCCN1CCC(=NNC(=O)c2ccc(Br)o2)CC1 was read as RGS16-Gao 112, GALR2 ag -0.2, INS promoter inh 38, HSV augment inactive, PKD1 kinase inh -2, INS promoter inh cell count 90 and HSV augment primary fold 0.91.
`CC1Cc2ccccc2N1C(=O)Cn1c(=O)oc2cc(S(=O)(=O)N3CCCCC3)ccc21` (stereo unspecified) gave RGS16-Gao 63, GALR2 ag 0.1, HSV augment inactive, PKD1 kinase inh -18 and HSV augment primary fold 1.
For Cc1ccc(C(=O)c2ccc([N+](=O)[O-])cc2)c(C)c1 the results were RGS16-Gao 87, GALR2 ag -2.9, INS promoter inh inactive, HSV augment inactive, PKD1 kinase inh -1, INS promoter inh cell count 58 and HSV augment primary fold 0.92.
Screening Cc1ccc(NC(=O)c2cc(-n3cnnc3)ccc2Cl)cc1 returned RGS16-Gao 98, GALR2 ag -0.3, INS promoter inh 63, HSV augment inactive, PKD1 kinase inh 3, INS promoter inh cell count 108 and HSV augment primary fold 0.94.
CCS(=O)(=O)N1CCC(C(=O)NCCN2CCN(Cc3ccccc3)CC2)CC1 was read as RGS16-Gao 162, GALR2 ag 6.2*, INS promoter inh 23, HSV augment inactive, PKD1 kinase inh -6, INS promoter inh cell count 113 and HSV augment primary fold 0.99.
CC(CNC(=O)c1cc(Cl)ccc1[N+](=O)[O-])NC(=O)c1cc(Cl)ccc1[N+](=O)[O-] (stereo unspecified) was read as RGS16-Gao 105, GALR2 ag -2.6, HSV augment inactive, PKD1 kinase inh 7 and HSV augment primary fold 1.
For COc1cc(C(=O)Nc2nnc(CC(=O)N3CCOCC3)s2)cc(OC)c1OC the results were RGS16-Gao 104, GALR2 ag -2.2, INS promoter inh 49, HSV augment inactive, PKD1 kinase inh -8, INS promoter inh cell count 150 and HSV augment primary fold 0.92.
For O=C(O)c1cccc(-n2cccc2/C=C\[N+](=O)[O-])c1 the results were RGS16-Gao 93, HSV augment inactive, PKD1 kinase inh -4 and HSV augment primary fold 0.91.
Screening O=C(O)CSc1sc(=S)sc1SCC(=O)O returned RGS16-Gao 106, GALR2 ag -3.0, INS promoter inh 45, HSV augment inactive, PKD1 kinase inh -6, INS promoter inh cell count 135 and HSV augment primary fold 0.98.
O=C(C1CCC(CNS(=O)(=O)c2cccc3cccnc23)CC1)N1CCc2ccccc21 (stereo unspecified) was read as RGS16-Gao 131, GALR2 ag -1.3, HSV augment inactive, PKD1 kinase inh 2 and HSV augment primary fold 0.9.
`CCCS(=O)(=O)N1CCN(C(=O)c2ccc(-c3ccccc3)cc2)CC1` gave RGS16-Gao 104, GALR2 ag -1.0, INS promoter inh -31, HSV augment inactive, PKD1 kinase inh -6, INS promoter inh cell count 60 and HSV augment primary fold 0.98.
`S=C(NCCC1=CCCCC1)Nc1ccc(Cl)cc1` gave RGS16-Gao 94, GALR2 ag 0.3, INS promoter inh 19, HSV augment inactive, PKD1 kinase inh -3, INS promoter inh cell count 133 and HSV augment primary fold 0.88.
For CCN1CCN(C(=S)c2ccc(Cl)c(Cl)c2)CC1 the results were RGS16-Gao 79, GALR2 ag -1.6, HSV augment inactive, PKD1 kinase inh 5 and HSV augment primary fold 1.
COc1cccc(NS(=O)(=O)c2ccc3[nH]cc(C(=O)NCCN4CCOCC4)c(=O)c3c2)c1 was read as RGS16-Gao 101, GALR2 ag -1.2 and PKD1 kinase inh -8.
Screening O=C(O)CCc1nc(-c2ccc(Cl)cc2)no1 returned RGS16-Gao 98, GALR2 ag -1.3, INS promoter inh -6, HSV augment inactive, PKD1 kinase inh -2, INS promoter inh cell count 179 and HSV augment primary fold 0.95.
`O=S(=O)(NCc1cccs1)c1cccc(S(=O)(=O)N2CCCCC2)c1` gave RGS16-Gao 95, GALR2 ag 0.2, HSV augment inactive, PKD1 kinase inh -5 and HSV augment primary fold 1.
`COc1ccc(F)cc1C(=O)C1CCCN(C(=O)Cc2c(C)noc2C)C1` (stereo unspecified) gave RGS16-Gao 100, HSV augment inactive, PKD1 kinase inh -5 and HSV augment primary fold 0.95.
Screening Nn1c(SCc2cn3cc(Cl)ccc3n2)nnc1-c1ccncc1 returned RGS16-Gao 98, HSV augment inactive, PKD1 kinase inh -1 and HSV augment primary fold 0.97.

Reprinted from the results shown for reference:
O=C(C1CCC(CNS(=O)(=O)c2cccc3cccnc23)CC1)N1CCc2ccccc21 (stereo unspecified) was read as RGS16-Gao 131, GALR2 ag -1.3, HSV augment inactive, PKD1 kinase inh 2 and HSV augment primary fold 0.9.
`CCCS(=O)(=O)N1CCN(C(=O)c2ccc(-c3ccccc3)cc2)CC1` gave RGS16-Gao 104, GALR2 ag -1.0, INS promoter inh -31, HSV augment inactive, PKD1 kinase inh -6, INS promoter inh cell count 60 and HSV augment primary fold 0.98.
`S=C(NCCC1=CCCCC1)Nc1ccc(Cl)cc1` gave RGS16-Gao 94, GALR2 ag 0.3, INS promoter inh 19, HSV augment inactive, PKD1 kinase inh -3, INS promoter inh cell count 133 and HSV augment primary fold 0.88.
For CCN1CCN(C(=S)c2ccc(Cl)c(Cl)c2)CC1 the results were RGS16-Gao 79, GALR2 ag -1.6, HSV augment inactive, PKD1 kinase inh 5 and HSV augment primary fold 1.
COc1cccc(NS(=O)(=O)c2ccc3[nH]cc(C(=O)NCCN4CCOCC4)c(=O)c3c2)c1 was read as RGS16-Gao 101, GALR2 ag -1.2 and PKD1 kinase inh -8.
Screening O=C(O)CCc1nc(-c2ccc(Cl)cc2)no1 returned RGS16-Gao 98, GALR2 ag -1.3, INS promoter inh -6, HSV augment inactive, PKD1 kinase inh -2, INS promoter inh cell count 179 and HSV augment primary fold 0.95.
`O=S(=O)(NCc1cccs1)c1cccc(S(=O)(=O)N2CCCCC2)c1` gave RGS16-Gao 95, GALR2 ag 0.2, HSV augment inactive, PKD1 kinase inh -5 and HSV augment primary fold 1.

(further entries)
`O=C1CSC(c2cn(-c3ccccc3)nc2-c2cc3ccccc3oc2=O)N1Cc1ccccc1` (stereo unspecified) gave RGS16-Gao 103, GALR2 ag 0.4, INS promoter inh 4, HSV augment inactive, PKD1 kinase inh 7, INS promoter inh cell count 97 and HSV augment primary fold 0.97.
Screening O=C(COc1ccc(S(=O)(=O)N2CCCCC2)cc1)NCC1CCCO1 (stereo unspecified) returned RGS16-Gao 90, HSV augment inactive, PKD1 kinase inh -8 and HSV augment primary fold 1.1.
O=C(c1ccc2c(c1)OCO2)N1CCCC1 was read as RGS16-Gao 99, GALR2 ag -2.0, INS promoter inh -36, HSV augment inactive, PKD1 kinase inh -7, INS promoter inh cell count 237 and HSV augment primary fold 0.82.
For COc1ccc(-n2ncc3c(=O)n(Cc4c(F)cccc4Cl)cnc32)cc1 the results were RGS16-Gao 101, HSV augment inactive, PKD1 kinase inh 1 and HSV augment primary fold 0.86.
Screening Cc1ccc(S(=O)(=O)Nc2cc(=O)[nH]c(SCc3ccccc3Cl)n2)cc1 returned RGS16-Gao 99, GALR2 ag -1.9, INS promoter inh -31, PKD1 kinase inh -7 and INS promoter inh cell count 126.
CCCCCCCCOC(=O)CCc1c(C)[nH]c(=S)[nH]c1=O was read as RGS16-Gao 101, GALR2 ag -1.1, INS promoter inh 45, HSV augment inactive, PKD1 kinase inh 2, INS promoter inh cell count 80 and HSV augment primary fold 1.1.
For COc1cccc(/C=C/C(=C2/C(=O)N(c3ccccc3)N=C2C)c2ccc(Br)cc2)c1OC the results were RGS16-Gao 91, GALR2 ag 0.3, HSV augment inactive, PKD1 kinase inh 7 and HSV augment primary fold 0.99.
O=C(Nc1cccc(F)c1)c1coc(=O)c(Br)c1 was read as RGS16-Gao 100, GALR2 ag -0.6, INS promoter inh -58, HSV augment inactive, PKD1 kinase inh 6, INS promoter inh cell count 70 and HSV augment primary fold 1.1.
`Cc1cccc(-n2nnc(C(=O)N3CCc4ccccc4C3)c2N)c1` gave RGS16-Gao 101, GALR2 ag -0.1, HSV augment inactive, PKD1 kinase inh 3 and HSV augment primary fold 1.
For CCc1c(C)sc(NC(=O)CC#N)c1C#N the results were RGS16-Gao 98, GALR2 ag -0.3, INS promoter inh 34, HSV augment inactive, PKD1 kinase inh -12, INS promoter inh cell count 78 and HSV augment primary fold 1.3.
Screening COc1cccc(C(=O)Nc2ncc3c(n2)CC(C)(C)CC3=O)c1 returned RGS16-Gao 95, GALR2 ag -2.0, HSV augment inactive, PKD1 kinase inh 2 and HSV augment primary fold 0.89.
NC(=O)CCn1c2ccccc2c2ccccc21 was read as RGS16-Gao 102, INS promoter inh -68, HSV augment inactive, PKD1 kinase inh -8, INS promoter inh cell count 75 and HSV augment primary fold 0.87.
Cc1nn(C)cc1CN(C)C(=O)CCc1nnc(CCC2CCCCC2)o1 was read as RGS16-Gao 102, HSV augment inactive, PKD1 kinase inh -5 and HSV augment primary fold 0.86.
For Cc1ccc(NC(=O)N2CCCC(c3nc(-c4ccc(F)cc4)no3)C2)cc1 (stereo unspecified) the results were RGS16-Gao 102, HSV augment inactive and HSV augment primary fold 0.85.
FC(F)(F)c1cccc(-c2nc3nc(Cl)c(Cl)nc3[nH]2)c1 was read as RGS16-Gao 100, HSV augment inactive and HSV augment primary fold 0.96.
`Cn1cc(C(=O)c2ccc(Cl)cc2Cl)cc1C(=O)N/N=C(\N)COc1ccccc1` gave RGS16-Gao 109, GALR2 ag -1.9, INS promoter inh 21, HSV augment inactive, PKD1 kinase inh 7, INS promoter inh cell count 12 and HSV augment primary fold 1.
Cc1ccc(NC(=O)OCCN2CCN(Cc3ccccc3)CCC2=O)cc1C was read as RGS16-Gao 103, GALR2 ag -0.4, INS promoter inh -110, HSV augment inactive, PKD1 kinase inh -2, INS promoter inh cell count 81 and HSV augment primary fold 1.1.
COc1ccc(C(=O)CSc2nnc(CNC(=O)c3ccco3)n2C)cc1 was read as RGS16-Gao 108, HSV augment inactive, PKD1 kinase inh -6 and HSV augment primary fold 0.93.
For CC(C)n1c(SCC(=O)N2CCCC2)nc2c1c(=O)n(C)c(=O)n2C the results were RGS16-Gao 102, GALR2 ag -0.3, HSV augment inactive, PKD1 kinase inh -8 and HSV augment primary fold 1.1.
For CN1CCc2c(sc3c2C(=O)NC(c2ccc(-c4cccc(Cl)c4)o2)N3)C1 (stereo unspecified) the results were RGS16-Gao 100 and PKD1 kinase inh -8.
CC(C)=CCN1CCN(Cc2cnc(-c3ccccc3)s2)CC1CCO (stereo unspecified) was read as RGS16-Gao 103, HSV augment inactive, PKD1 kinase inh 3 and HSV augment primary fold 0.99.
For CCC(=O)N/C(=N\OCc1ccc(F)cc1)c1nonc1NC(=O)CC the results were RGS16-Gao 106, GALR2 ag -4.0, INS promoter inh -29, HSV augment inactive, PKD1 kinase inh -14, INS promoter inh cell count 136 and HSV augment primary fold 0.9.
`Cc1oc(-c2ccc(Cl)cc2)nc1CN1CCC(C(=O)N2CCN(Cc3ccccc3)CC2)CC1` gave RGS16-Gao 91, GALR2 ag 0.1 and PKD1 kinase inh -3.
`CCCNC(=S)NCCN1CCCCC1` gave RGS16-Gao 105, GALR2 ag -1.7, INS promoter inh -314, HSV augment inactive, PKD1 kinase inh -13, INS promoter inh cell count 53 and HSV augment primary fold 0.96.
Screening COc1ccccc1-c1nnc(NC(=O)c2cccc(N3C(=O)CCC3=O)c2)o1 returned RGS16-Gao 99, GALR2 ag 0.3, INS promoter inh 4, HSV augment inactive, PKD1 kinase inh -14, INS promoter inh cell count 103 and HSV augment primary fold 1.1.
`COc1ccc(NC(=O)c2ccc(NCCCN3CCOCC3)c([N+](=O)[O-])c2)cc1` gave RGS16-Gao 111, GALR2 ag -0.7, HSV augment inactive, PKD1 kinase inh -6 and HSV augment primary fold 0.97.
For CCOc1ccc(N2CC(C(=O)NCc3ccc(C)n3C)CC2=O)cc1 (stereo unspecified) the results were RGS16-Gao 94, HSV augment inactive, PKD1 kinase inh 0 and HSV augment primary fold 0.96.
`Cc1ccc(C(C(=O)Nc2ccc(C(C)C)cc2)N(C)C(=O)c2ccc(=O)[nH]c2)cc1` (stereo unspecified) gave RGS16-Gao 96, HSV augment inactive, PKD1 kinase inh 1 and HSV augment primary fold 0.92.
For O=S(=O)(c1ccccc1)N1CCN(Cc2ccccc2C(F)(F)F)CC1 the results were RGS16-Gao 98, GALR2 ag -1.8, INS promoter inh -106, HSV augment inactive, PKD1 kinase inh 3, INS promoter inh cell count 90 and HSV augment primary fold 0.95.

Bioassay records (PubChem)
